KCNQ2 pot: enhances the rat KCNQ2 potassium channel. O88943. CHO-K1 KCNQ2, FluxOR thallium flux fluorescence; active compounds read high. B-score at 10 µM. 310,000 tested, 0.54% active. AID 2239;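 active = fluorescence ratio B-score at least 3 SD of library B-scores, with initial fluorescence B-score within 3 SD, cut at about 5.3 in these data; same plate scores as AID 2156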;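 also: B-score of peak minus minimum over baseline fluorescence ratio after K+ and Tl+ stimulus; positive B-score means potentiation of KCNQ2 with more thallium influx and brighter signal; only the inactives scoring about 0 or higher are listed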
Target sequence (O88943 whole entry, looked up): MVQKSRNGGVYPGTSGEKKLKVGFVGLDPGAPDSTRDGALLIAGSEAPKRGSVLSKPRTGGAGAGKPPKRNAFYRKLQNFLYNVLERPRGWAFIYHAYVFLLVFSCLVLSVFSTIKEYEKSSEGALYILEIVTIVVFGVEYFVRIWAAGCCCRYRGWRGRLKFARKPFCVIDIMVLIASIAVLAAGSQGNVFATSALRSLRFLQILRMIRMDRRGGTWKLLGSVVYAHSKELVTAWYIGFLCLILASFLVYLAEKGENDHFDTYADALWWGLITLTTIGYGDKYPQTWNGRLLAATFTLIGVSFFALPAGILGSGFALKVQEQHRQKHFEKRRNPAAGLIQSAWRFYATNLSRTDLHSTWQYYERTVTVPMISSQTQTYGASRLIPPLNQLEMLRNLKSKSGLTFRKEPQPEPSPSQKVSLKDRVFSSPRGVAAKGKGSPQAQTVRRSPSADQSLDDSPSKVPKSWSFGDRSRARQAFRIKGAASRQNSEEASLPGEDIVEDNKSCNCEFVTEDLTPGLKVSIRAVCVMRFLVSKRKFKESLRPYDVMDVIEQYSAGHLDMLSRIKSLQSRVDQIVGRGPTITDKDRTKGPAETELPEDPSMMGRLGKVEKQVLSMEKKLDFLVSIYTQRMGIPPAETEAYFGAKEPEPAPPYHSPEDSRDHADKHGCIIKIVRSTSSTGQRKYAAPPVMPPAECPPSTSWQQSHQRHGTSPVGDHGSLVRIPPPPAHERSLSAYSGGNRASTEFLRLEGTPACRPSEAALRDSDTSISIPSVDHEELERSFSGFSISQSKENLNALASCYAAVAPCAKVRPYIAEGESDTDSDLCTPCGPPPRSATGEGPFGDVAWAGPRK
KCNQ2 pot baseline: second read-out of KCNQ2 pot, no call of its own (marks repeat the call); B-score; compound at 10 µM; measured here: initial fluorescence intensity artifact check;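 brightness before thallium and not channel activity; 0 = typical well and far values either way flag optical interference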
Active calls of the source: *.

KCNQ2 pot | KCNQ2 pot baseline | structure
0.37 | -1.31 | O=C(O)CCc1ccc(-c2cccs2)n1CCC(=O)O
3.15 | 1.37 | O=C(CCCC(=O)OCC(Cl)=C(Cl)Cl)Nc1ccccc1
0.05 | 0.67 | CCCN(C1CCS(=O)(=O)C1)S(=O)(=O)c1ccc(F)cc1 (stereo not given)
1.1 | 0.02 | Nc1ccccc1Oc1ncc(C(F)(F)F)cc1Cl
0.03 | 2.22 | CCNC(=O)NC(=O)C(C)OC(=O)CNS(=O)(=O)c1c(Cl)cc(Br)cc1Cl (stereo not given)
0.02 | -0.07 | Cn1ncc2c(Nc3ccccc3Cl)nc(Cl)nc21
0.1 | -1.66 | CCC(=O)N1CCN(c2ccc(NC(=O)c3ccc(Br)o3)cc2)CC1
1.76 | 1.16 | CCOC(=O)Cc1c(C)nc2c(-c3cccc(Br)c3)c[nH]n2c1=O

Complete entries, looked up by structure. Order of values: KCNQ2 pot	KCNQ2 pot baseline
`CCOC(=O)Cc1c(C)nc2c(-c3cccc(Br)c3)c[nH]n2c1=O` is listed with 1.76	1.16
`Nc1ccccc1Oc1ncc(C(F)(F)F)cc1Cl` is listed with 1.1	0.02
`O=C(O)CCc1ccc(-c2cccs2)n1CCC(=O)O` is listed with 0.37	-1.31
`O=C(CCCC(=O)OCC(Cl)=C(Cl)Cl)Nc1ccccc1` is listed with 3.15	1.37
`CCNC(=O)NC(=O)C(C)OC(=O)CNS(=O)(=O)c1c(Cl)cc(Br)cc1Cl` (stereo not given) is listed with 0.03	2.22

Continuation.
KCNQ2 pot | KCNQ2 pot baseline | structure
0.88 | 1.8 | CCOc1ccc(N(CC(=O)NCc2ccc(Cl)cc2)S(=O)(=O)c2c(C)noc2C)cc1
0.04 | 0 | CCOC(=O)CNc1nc(Cl)nc(NC(C)(C)C)n1
4.84 | 0.36 | O=C(CSCc1ccc(Cl)cc1)N/N=C/c1ccco1
1.76 | -0.14 | Cc1ccc2c(c1)cc(CN(Cc1cccs1)C(=O)c1ccco1)c1nnnn12
0.09 | 1.4 | CN(C)c1ccc(CNS(=O)(=O)c2ccc3c(c2)C(C)(C)C(=O)N3C)cc1
1.48 | -0.37 | CCOc1ccc(C(=O)Nc2cccc([N+](=O)[O-])c2)cc1Br
0.63 | -0.88 | CCOc1ccc(CNn2nnnc2N)cc1
0.15 | 1.15 | CCC(C)NC(=O)C1CCCN(S(=O)(=O)c2ccc(-n3cnnn3)cc2)C1 (stereo not given)
1.99 | 1.08 | CCN(CC)C(=O)c1cccc(NC(=O)CC23CC4CC(CC(C4)C2)C3)c1
0.83 | 0 | CC(C)OC(=O)/C(C#N)=C/c1c[nH]c2ccccc12
0.77 | 0.38 | CCOc1ccc(N2C(=O)C3CCCN3C2=O)cc1 (stereo not given)
1.35 | -0.02 | CC(=O)N1CCc2cc(S(=O)(=O)NCCCN3CCC(C)CC3)ccc21
2.74 | -0.18 | COc1ccc(C(=O)Nc2cc(C)on2)c(OC)c1
0.68 | -1.01 | O=C(O)C1C2CCC(O2)C1C(=O)Nc1ccc(O)cc1 (stereo not given)
0.01 | -2.28 | COc1ccc2o/c(=N/NC(=O)c3cccs3)c(C(N)=O)cc2c1
0.44 | 0.21 | CCCCNC(=O)Nc1ccc(C2SCCS2)cc1
0.25 | -1.45 | Cc1cccc(NC(=S)NCc2ccccc2Cl)c1C
0.01 | 0.24 | CN(CCOc1ccccc1)C(=O)c1ccc(F)c(S(=O)(=O)N2CCOCC2)c1
0.54 | -1.57 | CC(C)c1ccc(NC(=O)C2CSC3(C)CCC(=O)N23)cc1 (stereo not given)
1.23 | -1.21 | Cc1cc(C)c(NC(=O)CSc2nnc(-c3ccncc3)n2Cc2ccco2)c(C)c1
0.36 | 0.64 | CC(=O)c1sc2nc(CSc3nnnn3-c3ccccc3)[nH]c(=O)c2c1C
0.15 | 0.36 | CCN(Cc1nc(-c2ccccc2)no1)C(=O)c1ccco1
0.41 | -2.05 | Cc1ccccc1C(=O)N1CCc2c([nH]c3ccccc23)C1C(F)(F)F (stereo not given)
0.16 | 1.59 | CCCn1nc(C(=O)Nc2nnc(CC)s2)c2ccccc2c1=O
0.03 | -0.48 | O=C(O)C(Cc1ccccc1)n1c(=S)[nH]c2ccccc2c1=O (stereo not given)
0.01 | 0.71 | COc1cccc(CN(C)C(=O)c2cc(S(=O)(=O)NCc3ccccc3)ccc2C)c1OC
0.62 | 0.07 | CCc1ccc(C2NC(=S)NC3=C2C(=O)CC(C)(C)C3)cc1 (stereo not given)
0.73 | 1.11 | Cc1cc(C(=O)NCC(=O)O)c(C)o1
0.7 | 0.6 | CC(C)[C@@H](NC(=O)C1CCC(CNC(=O)[C@H](Cc2ccccc2)NC(=O)OC(C)(C)C)CC1)C(=O)O (stereo not given in full)
1.84 | -1.12 | COCCn1c(-c2ccc(-c3ccccc3Cl)o2)nc2c1c(=O)[nH]c(=O)n2CC(C)C
0.02 | 0.51 | O=C(Nc1ccc(Br)cc1)C1CCN(C(=O)c2ccc(F)cc2)CC1
0.31 | 0 | CS(=O)(=O)N(CC(=O)NCc1ccc2c(c1)OCO2)C1CCCCC1
0.85 | -2.25 | COc1cc(/C=N/NC(=O)CCc2n[nH]c(=O)[nH]c2=O)ccc1O
0.87 | -0.4 | COc1ccc2c(c1)[nH]c1c(=O)n(CCN(C)C)cnc12
0.87 | -0.66 | CC(C)(C)n1cnnc1Sc1ncccc1[N+](=O)[O-]
0.95 | -0.06 | O=C(Nc1ccccc1-c1ccccc1)c1ccc(NC(=O)c2ccco2)cc1
0.15 | 0.81 | Cc1ccc([N+](=O)[O-])cc1N(CC(=O)N1CCCCC1)S(C)(=O)=O
0.62 | -0.81 | Cc1ccc(NC(=O)Nc2nc3ccccc3s2)cc1NC(=O)Nc1nc2ccccc2s1
0.2 | 0.01 | O=C(/C=C/c1ccccc1Cl)Nn1cnc2ccccc2c1=O
0.2 | -0.46 | CCc1nnc(NC(=O)CSc2nnc(CNc3ccc(OC)cc3)n2CC)s1
0.09 | 0 | CCOC(=O)C1C(=O)NC(N2CCN(Cc3ccccc3)CC2)=NC1c1ccccc1 (stereo not given)
0.24 | 3.49 | CC(C(=O)N1CCN(c2ccc([N+](=O)[O-])cc2)CC1)N1C(=O)C2CC=CCC2C1=O (stereo not given)
0.8 | -0.13 | Cn1c(CNC(=O)CCNC(=O)c2cccc(Br)c2)cc(=O)n(C)c1=O
0.14 | 0.16 | O=C(CC(Nc1cccc(Cl)c1Cl)C(=O)O)c1ccccc1 (stereo not given)
0.36 | 1.06 | COc1ccc(NC(=O)Nc2ccc3c(c2)CCC3)c(OC)c1
1.26 | -0.79 | CCn1c(SCC(=O)OCC(=O)N2c3ccccc3NC(=O)C2(C)C)nnc1-c1ccco1
0.75 | -0.61 | COc1ccc(-c2oc3ccccc3c2C(=O)OCc2ccccc2OC)cc1
1.76 | -0.66 | CCCCCCCCSc1nnc2[nH]c(=O)cc(N)n12
4.99 | -0.66 | COc1cc(-c2nnc(NC(=O)c3ccc(S(=O)(=O)N4CCOCC4)cc3)o2)cc(OC)c1OC
0.03 | 0.43 | Cc1ccccc1NC(=O)c1ccno1
1.09 | -0.95 | O=c1cc(-c2ccc(Cl)cc2)oc(=O)[nH]1
0.15 | -0.12 | Cc1ccc(NC(=O)N2CCCCC2)cc1[N+](=O)[O-]
1.95 | 2.21 | OCCN=C1CCCc2c1[nH]c1ccc(Cl)cc21
0.18 | 0.7 | CCOc1ccc(Nc2ncnc3c2nnn3Cc2ccccc2)cc1
0.09 | -2.24 | CCCCC(=O)NCCc1ccc(OC)cc1
3.99 | -0.35 | O/N=C/c1cn(-c2ccccc2)nc1-c1ccc2c(c1)OCCO2

The list continues.
KCNQ2 pot | KCNQ2 pot baseline | structure
0.01 | 0.11 | CC(C)(C)NS(=O)(=O)c1ccc(CCC(=O)N2CCOCC2)cc1
1.88 | -0.01 | COc1ccc2c(c1OC)C(=O)N(c1cccc(/C=C/C(=O)O)c1)C2
0.75 | 1.48 | CCc1nnc(NC(=O)c2ccc3c(=O)n4c(nc3c2)CCCCC4)s1
0.01 | 1.06 | CCOC(=O)CS(=O)(=O)c1ccc(C(F)(F)F)cn1
1.59 | 0.6 | COc1ccc2[nH]c3c(NCc4ccco4)ncnc3c2c1
0.32 | -1.67 | CCc1ccc(NC(=O)CSc2ccccn2)cc1
0.17 | -0.65 | Cc1noc(C)c1CSCC(=O)N(C)CC(=O)Nc1ccc(Cl)cc1
0.54 | 0.83 | CCN1CCN(S(=O)(=O)c2ccc(Cl)c(C(=O)N(C)Cc3ccc(F)cc3)c2)CC1
0.17 | -1.92 | Cc1c(S(=O)(=O)N2CCc3ccccc3C2)c(=O)n(C)c(=O)n1C
1.09 | 0.78 | COc1cc(OC)cc(C(=O)NC(=S)Nc2nnn(C)n2)c1
0.17 | -1.25 | Cc1nc2ncccn2c1-c1csc(Nc2ccccc2)n1
0.12 | -0.6 | COc1cccc(O)c1CN1CCC(C(=O)Nc2ccc(-c3cccc(C)c3)cc2)CC1
3.98 | -0.95 | CCOC(=O)N1CCN(C(=O)c2oc3ccc(S(=O)(=O)N4CCOCC4)cc3c2C)CC1
2.08 | 0.2 | Cc1cc(NC(=O)CSc2nnc(-c3cccnc3)n2C)no1
0.03 | 0.11 | CCOC(=O)c1ccc(S(=O)(=O)NNC(=O)COc2ccccc2C)cc1
1.15 | -0.22 | Nc1c(/C=C2/C=CC(=O)C(O)=C2)c(=O)nc2sc(CC(=O)N3CCCC3)nn12
0.09 | -0.99 | CCOc1ccc(-n2c(SCC(=O)NCc3ccco3)nnc2-c2c[nH]c3ccccc23)cc1
2.12 | -1.05 | O=C(/C=C/c1ccco1)Nc1cccc(NC(=O)/C=C/c2ccco2)n1
0.2 | -2.54 | COc1ccc(C(=O)NC2CCc3ccccc32)cc1OC1CCN(C(C)=O)CC1 (stereo not given)
9* | 0.76* | CCCn1c2ccccc2c2cnn(CC(=O)N3CCN(C4CCCCC4)CC3)c(=O)c21
0.76 | -0.07 | CCN(CC)c1ccc(/C=N/N2CCN(Cc3ccc(Cl)cc3)CC2)c(O)c1
0.59 | 0.21 | Cc1nc(-c2nnc(SCC(=O)Nc3ccc(Cl)cc3)n2C)cs1
2.15 | -1.05 | Cc1noc(NS(=O)(=O)c2ccc(NC(=O)/C=C/c3ccc(C(C)C)cc3)cc2)c1C
0.1 | -0.49 | O=C(N/N=C/c1ccc([N+](=O)[O-])cc1)C(=O)N1CCCC1

Pulled one by one from the list above (four):
KCNQ2 pot | KCNQ2 pot baseline | structure
0.1 | -0.49 | O=C(N/N=C/c1ccc([N+](=O)[O-])cc1)C(=O)N1CCCC1
2.12 | -1.05 | O=C(/C=C/c1ccco1)Nc1cccc(NC(=O)/C=C/c2ccco2)n1
0.76 | -0.07 | CCN(CC)c1ccc(/C=N/N2CCN(Cc3ccc(Cl)cc3)CC2)c(O)c1
0.59 | 0.21 | Cc1nc(-c2nnc(SCC(=O)Nc3ccc(Cl)cc3)n2C)cs1

Continued:
KCNQ2 pot | KCNQ2 pot baseline | structure
0.03 | -0.4 | CCOc1ccc(C(CC(=O)O)NC(=O)C(CC)c2ccccc2)cc1 (stereo not given)
0.26 | 2.29 | O=C(CCCCn1c(=O)[nH]c2ccsc2c1=O)NCc1ccc2c(c1)OCO2
0.5 | 0.4 | CCOc1ccc2nc(SCC(=O)NCc3ccccc3)[nH]c2c1
0.44 | 0.44 | O=C(CSc1ncnc2c1oc1ccccc12)NCC1CCCO1 (stereo not given)
0.3 | 0.73 | CCn1c(=O)c2cc(C(=O)NCCOC)sc2c2ccccc21
1.74 | -0.39 | CC1CN(c2oc(-c3ccco3)nc2C#N)CC(C)O1 (stereo not given)
0.94 | 0.54 | COc1ccc(NS(=O)(=O)c2ccc(NS(=O)(=O)c3cccc(C(=O)O)c3)cc2)cc1
2.05 | -1.1 | COc1ccc(N2CC(C(=O)N3CCN(c4ccccc4F)CC3)CC2=O)cc1 (stereo not given)
0.38 | -1.57 | c1ccc(-n2c(-c3ccco3)nnc2-c2ccco2)cc1
0.93 | 0.02 | O=C(O)c1cc(NS(=O)(=O)c2ccc(N3CCOCC3)c([N+](=O)[O-])c2)cc(C(=O)O)c1
2.05 | 0.43 | CCOC(=O)C1C(=O)CC(C)(O)C(C(=O)OCC)C1c1cccc(OC(F)(F)C(F)F)c1 (stereo not given)
0.43 | 1.58 | Cc1ccc2nc(N3C(=O)C(O)=C(C(=O)c4cc5ccccc5o4)C3c3cccs3)sc2c1 (stereo not given)
1.33 | 0.05 | Cc1cc(C)nc(/N=C(\NC(=O)C(C)(C)C)Nc2ccccc2)n1
2.54 | -0.71 | O=C(CSc1n[nH]c(-c2cccnc2)n1)Nc1ccc(Br)cc1
1.49 | -0.87 | CCn1c(SCC(=O)NNC(=O)c2ccccc2)nnc1-c1ccncc1
0.85 | -0.27 | CC(C)NC(=O)c1cc2c(-c3ccc(Cl)cc3)nn(C)c2s1
0.2 | -0.94 | O=C(NCc1ccccn1)C1CCN(S(=O)(=O)N2CCCC2)CC1
0.89 | -1.32 | CCN(CC)S(=O)(=O)c1ccc(C(=O)OCn2nnc3ccccc3c2=O)cc1
1.89 | -0.08 | Cn1c(SCc2nc(-c3cccs3)no2)nnc1C1CCCCC1
0.11 | 1.88 | O=C(CN1CCN(Cc2ccc(Cl)cc2)CC1)N/N=C/c1ccncc1
0.08 | -1.49 | COc1ccccc1CCC(=O)OCC(=O)Nc1cc(C)nn1-c1ccccc1
0.69 | 0.24 | COc1ccc(/C=C2\N=C(SC)SC2=O)cc1OC

From PubChem

Only part of the results is shown (hit frequency here may not be typical).
